Source: PubChem (National Center for Advancing Translational Sciences (NCATS))
StopGo reporter = FMDV 2A StopGo reporter, luciferase signal. human cells with a luciferase reporter of 2A StopGo recoding; control for the full effect not named in the record. Potency, µM (titrated, usually from 57.9 µM), inactives show top-dose signal change, negative = less light. actives 1.2% (n = 410,000). AID 1159524; active = well fitted falling curve with a large enough effect; inconclusive = small, poorly fitted or top-dose-only effect; inactive = no such curve, though single readings can be large or run the other way; tested in HEK293T cells; also: % is scaled to controls: 0 for no effect and ±100 for the full control effect; nearly all actives have a fitted effect of over 45% in size; luciferase light after 4 h
Cruzain Triton = inhibitors of Trypanosoma cruzi cruzain with detergent. purified cruzain, Z-FR-AMC fluorescence, 0.01% Triton. actives 0.43% (n = 200,000). Potency, µM, for inactives: max response, negative = inhibition, usual class: inhibitors. P25779; active = well fitted curve in the direction sought with a large enough effect; inconclusive = small, poorly fitted or top-dose-only effect, or another doubt; inactive = no such curve, though single readings can be large; an effect the other way counts as inactive or inconclusive;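 also: plate controls were neutral wells for no effect and buffer without enzyme for full effect; nearly all actives have a fitted effect of over 40% in size; top concentration of the series not given in the record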
Target sequence (P25779 123-467 limits assumed): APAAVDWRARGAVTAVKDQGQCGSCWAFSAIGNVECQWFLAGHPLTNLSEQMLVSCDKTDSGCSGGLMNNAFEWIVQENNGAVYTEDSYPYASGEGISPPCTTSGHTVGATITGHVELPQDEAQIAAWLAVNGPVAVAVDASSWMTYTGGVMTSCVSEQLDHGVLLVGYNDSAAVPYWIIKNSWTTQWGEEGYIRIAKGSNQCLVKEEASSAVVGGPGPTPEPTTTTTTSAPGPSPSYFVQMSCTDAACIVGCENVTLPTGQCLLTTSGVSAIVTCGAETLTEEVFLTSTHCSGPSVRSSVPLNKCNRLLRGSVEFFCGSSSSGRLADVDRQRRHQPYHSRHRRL
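Detergent-containing arm of a paired screen for aggregation-based inhibition: 0.01% Triton X-100 present. Cruzain at 1.5 nM cleaved 2 uM Z-FR-AMC at pH 5.5 with 5 mM DTT; AMC fluorescence gain over 60 s measured activity.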
NS1 function inh = inhibitors of influenza NS1 protein function. S. cerevisiae slowed by influenza A NS1, growth recovery by OD600. Potency, µM (series often up to 46.1 µM), without a hit: at the top dose activity, positive = more growth. actives 0.4% (n = 270,000). AID 2326; also: actives are rising curves; nearly all actives have a fitted effect of over 50% in size
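OD600 was taken as the measure of yeast growth restored by compound in an NS1-expressing S. cerevisiae strain. Cells had been washed out of glucose medium and diluted 1:100 into galactose -URA medium, pH 6.0.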
LASV entry inh = inhibitors of Lassa virus binding or cell entry. Lassa virus pseudotype entry inhibition, cell reporter; control for the full effect not named in the record. Potency, µM (top dose mostly 37.9 µM), inactives show at the highest dose activity change, negative = inhibition, actives largely listed as inhibitors. actives 1.2% (n = 300,000). AID 540256; active means well fitted inhibition curve with a large enough effect; inconclusive means small, poorly fitted or top-dose-only effect, or effect the other way; inactive means flat fitted curve, though single readings scatter; tested in HEK293 cells; also: % is scaled to controls: 0 for no effect and ±100 for the full control effect; nearly all actives have a fitted effect of over 50% in size; luciferase read-out
Cruzain inh noDet = blocks cruzain activity in detergent-free assay. purified cruzain, Z-FR-AMC fluorescence, no detergent. Potency, µM, without a hit: max response, negative = inhibition, actives largely listed as inhibitors. actives 2.3% (n = 200,000); active = well fitted curve in the direction sought with a large enough effect; inconclusive = small, poorly fitted or top-dose-only effect, or another doubt; inactive = no such curve, though single readings can be large; an effect the other way counts as inactive or inconclusive;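 also: plate controls were enzyme without inhibitor for no effect and buffer without enzyme for full effect; nearly all actives have a fitted effect of over 40% in size; top concentration of the series not given in the record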
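Purified cruzain at 1.5 nM, pre-incubated 15 min with compound at room temperature in 100 mM sodium acetate pH 5.5, 5 mM DTT, 0.00005% Triton X-100. Reaction started with 2 uM Z-FR-AMC; AMC fluorescence increase over 60 s gives rate.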
RE007 growth inh = less growth of the S. pombe RE007 Vpr strain | S. pombe RE007 Vpr strain, BacTiter-Glo ATP luminescence, 24 h; control for the full effect not named in the record | Potency, µM (top dose mostly 92.2 µM), inactives show at the top dose activity change, negative = less growth | actives 0.21% (n = 360,000) | AID 651644; active = well fitted falling curve with a large enough effect; inconclusive = small, poorly fitted or top-dose-only effect; inactive = no such curve, though single readings can be large or run the other way;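 also: % is scaled to controls: 0 for no effect and ±100 for the full control effect; nearly all actives have a fitted effect of over 50% in size; the assay follows cell death caused by Vpr and the record does not say whether a fall means rescue or toxicity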
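Fission yeast strain RE007, carrying one chromosomally integrated HIV-1 vpr copy, was seeded at OD 0.01 in PMG+AL medium with 23 nL pinned compound. After 24 h at 30 °C and 99% humidity, viability was read by BacTiter-Glo luminescence.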
Marburg entry inh = blocks Marburg virus binding to or entry into cells; Marburg virus pseudotyped entry inhibition, cell reporter; control for the full effect not named in the record; about a third of the inactives were read at about 46 µM; Potency, µM (doses to about 37.8 µM), for the others: top-dose activity change, negative = inhibition, most hits filed as inhibitors; actives 1.8% (n = 300,000); active = well fitted inhibition curve with a large enough effect; inconclusive = small, poorly fitted or top-dose-only effect, or effect the other way; inactive = flat fitted curve, though single readings scatter; tested in HEK293 cells; about a fifth of its hits are not listed in these tables; also: % is scaled to controls: 0 for no effect and ±100 for the full control effect; luciferase read-out
SARS PLpro yeast = blocks SARS-CoV papain-like protease in a yeast assay; S. cerevisiae expressing SARS-CoV PLpro, growth rescue; control for the full effect not named in the record; AID 485353; Potency, µM (top dose mostly 32.9 µM), for the others: top-dose activity, positive = growth rescue; actives 0.19% (n = 330,000); also: 0% is about no effect; nearly all actives have a fitted effect of over 55% in size; growth read by luminescence after 48 h
Active calls of the source: *; ? = inconclusive; . = no result given; & = joins results of further samples; [ ] = remark or other dose. Unless noted, calls follow the shape of the dose curve; as a rule, active means well fitted rising curve with a large enough effect; inconclusive means small, poorly fitted or top-dose-only effect; inactive means no such curve, though single readings can be large or run the other way. Potency is read from the fitted curve at half-maximal effect.

mol,StopGo reporter,Cruzain Triton,NS1 function inh,LASV entry inh,Cruzain inh noDet,RE007 growth inh,Marburg entry inh,SARS PLpro yeast
CC1CCc2cc(F)ccc2N1C(=O)C12CCC(C)(C(=O)O1)C2(C)C (stereo not drawn),-16%,.,-2%,?,.,18%,23%[46.1 µM],1%
O=C(CCN1C(=O)c2ccccc2Sc2ncccc21)Nc1ccc(F)cc1,8%,-1.5%,.,10%[46.1 µM],-17%,.,.,.
COc1ccc(OC)c(-c2cc(C(=O)Nc3c(C)nn(Cc4ccccc4Cl)c3C)no2)c1,-9%,-6.1%,-62%,-10%,2%,12%,-3%&-16%,-4%
Cc1ccccc1NC(=O)CSc1nc(-c2ccc(F)cc2)nc2c1Cc1ccccc1O2,-13%,-1.4%,.,7%[46.1 µM],-5%,.,3%[46.1 µM],.
COc1cc(CCN2C(=O)c3cccc4cccc(c34)C2=O)c(S(=O)(=O)NCCO)cc1OC,31%[activator],-9.5%,2%,-15%,?,1%,-2%,3%
Cc1ccc(-n2ncc(Cl)c2C(=O)NC2CC2)cc1,4%,.,-7%,-7%[46.1 µM],.,-11%,?,-1%
Cc1ccccc1Nc1nc(N)nc(COC(=O)c2c(C)noc2C)n1,4%,.,.,-19%[46.1 µM],.,12%,-27%[46.1 µM],0%
CN1CCN(CCC(=O)N/N=C/c2cc([N+](=O)[O-])ccc2O)CC1,-13%,-4.2%,-50%,-10%,-12%,-9%,14%,-14%
Cn1cc(CC(=O)NCCCN2CCCC2=O)c2ccccc21,14%,0.2%,-2%,.,-4%,-1%,.,-1%
CCC(C)(C)NC(=O)C(c1ccccc1)N(Cc1cccnc1)C(=O)c1csnn1 (stereo not drawn),8%,-3.8%,5%,-4%,6%,1%,0%,8%
COCCNC(=O)c1ccc2c(c1)nc(C)n2-c1cccc(F)c1,14%,7.8%,-3%,3%,4%,13%,17%,3%
CCc1cccc(C)c1NC(=O)c1cc(C)nc2c1c(C)nn2-c1cccc(Cl)c1C,-10%,-1.0%,.,1%[46.1 µM],-14%,.,.,.
O=C(c1ccco1)N1CCN(c2ncccn2)CC1,4%,-1.1%,-1%,.,-13%,8%,.,2%
CCCn1cc(S(=O)(=O)CC(=O)Nc2ccc(OC)cc2OC)c2ccccc21,.,-3.7%,-18%,-12%,-11%,-7%,-17%,8%
O=c1c2ccccc2n(Cc2c(F)cccc2Cl)c(=O)n1CCc1ccccc1,-13%,-1.8%,.,-17%[46.1 µM],5%,.,16%[46.1 µM],.
CCCCN(C)Cc1c(C)[nH]c2ccccc2c1=O,-19%,.,2%,9%[46.1 µM],.,5%,?,-1%
CC1=Nc2cc(C(=O)O)ccc2Sc2ccc(Br)cc21,-12%,-19%,?,-1%,35%,-4%,-3%,?
CC(C)c1cc(C(N)=O)c(NC(=O)C2CCC2)s1,-10%,4.5%,-52%,10%,10%,4%,0%,0%
CCCCCCCC(=O)Nc1cc(C(=O)NCCC)ccc1N1CCC2(CC1)CC(c1ccccc1)=NO2,-19%,.,12%,.,.,2%,.,13%
CCOc1ccc(C2/C(=C(\O)c3ccc(OC)c(OC)c3)C(=O)C(=O)N2c2cc(C)on2)cc1OC (stereo not drawn),0%,-3.1%,?,5%,-4%,9%,-10%,-3%
COc1ccc(Nc2ncc(C(=O)Nc3ccc(F)cc3F)c3ccccc23)cc1,0%,-16%,.,-2%[46.1 µM],18%,.,-13%[46.1 µM],.
CCOCCN1CCN(C(=O)CN2CCCC2=O)CC1,-5%,-0.5%,7%,5%,7%,-9%,?,13%
O=C(NCc1ccc2c(c1)OCO2)c1ccc(S(=O)(=O)C(F)F)cc1,-2%,.,.,?,.,-2%,4%[46.1 µM],0%
O=C(Nc1ccc(F)cc1Cl)C1=COCCO1,26%,.,.,14%,.,-22%,19%[46.1 µM],1%
Cc1ccc(NC(=S)N2CCCC(c3ccccc3)=N2)cc1,5%,.,4%,-29%,.,2%,-2%,0%
N/C(=N\OC(=O)c1ccccc1Cl)c1ccncc1,40%[activator],.,4%,-24%,.,?,?,-1%
Cc1ccccc1C(=O)Nc1nnc(S(=O)(=O)N(C)Cc2ccco2)s1,24%,.,8%,1%[46.1 µM],.,-3%,20%[46.1 µM],-1%
CCCS(=O)(=O)N1CCCC(C(=O)NCc2cccnc2)C1 (stereo not drawn),-13%,3.1%,2%,15%,0%,14%,2%,-3%
CC(NC(=O)CS(=O)(=O)c1ccccc1)c1ccccc1 (stereo not drawn),-17%,.,3%,.,.,10%,.,-1%
CC(C)CCn1nnnc1CN1CCN(c2ccccc2)CC1,-15%,.,-3%,?,.,5%,-17%[46.1 µM],-1%
O=C(NC1CCCC1)c1ccc(CSCc2ccccc2F)o1,35%[activator],-2.5%,-107%,?,-2%,8%,16%,-19%
COc1ccc2nc(COC(=O)c3cccc([N+](=O)[O-])c3)c(C(C)=O)[n+]([O-])c2c1,-4%,.,3%,.,.,-3%,.,1%
Nc1nc(Cl)c(C=O)c(N2CCCCC2)n1,-17%,.,.,?,.,36%,-1%[46.1 µM],1%
COc1cc(C2C(C#N)=C(N)Oc3cc(O)ccc32)cc2c1OCO2 (stereo not drawn),-15%,-7.1%,-14%,-22%,5%,-2%,?,0%
Cc1cccc(C)c1OCc1cc(C(=O)N2CCC(C3CCCCC3)C2)no1 (stereo not drawn),-9%,.,.,8%,.,3%,6%,.
O=C(/C=C/c1ccc(OCCCF)cc1)Nc1ccnc(-c2cccnc2)n1,-38%,.,.,-6%[46.1 µM],.,-9%,?,0%
Cc1ccc(NC(=O)CN2CCN(Cc3ccccc3)CC2)c(Br)c1,5%,.,7%,.,.,-1%,.,10%
COc1ccccc1NC(=O)C(=O)N/N=C(\C)CC(=O)Nc1ccccc1C(F)(F)F,19%,.,2%,-3%,.,-1%,?,-17%
O=C(CN1C(=O)NC2(CCCC2)C1=O)N1CCN(S(=O)(=O)c2ccc(Cl)c(C(F)(F)F)c2)CC1,?,.,.,?,.,9%,27%,-3%
CCOCC(=O)Nc1nnc(C)s1,-4%,15%,-3%,-20%,-7%,6%,?,10%

Gathered by group: those above with bromine.
mol,StopGo reporter,Cruzain Triton,NS1 function inh,LASV entry inh,Cruzain inh noDet,RE007 growth inh,Marburg entry inh,SARS PLpro yeast
CC1=Nc2cc(C(=O)O)ccc2Sc2ccc(Br)cc21,-12%,-19%,?,-1%,35%,-4%,-3%,?
Cc1ccc(NC(=O)CN2CCN(Cc3ccccc3)CC2)c(Br)c1,5%,.,7%,.,.,-1%,.,10%

Next section.
Each structure is followed by: StopGo reporter	Cruzain Triton	NS1 function inh	LASV entry inh	Cruzain inh noDet	RE007 growth inh	Marburg entry inh	SARS PLpro yeast
> NS(=O)(=O)c1ccc(NC(=S)NCc2ccc(Cl)cc2)cc1
→ -21%	-8.9%	5%	-1%	13%	-13%	24%	-7%
> Clc1ccc(Nc2c(-c3ccccc3Cl)nc3ccc(Cl)cn23)cc1
→ ?	-5.6%	.	-18%[46.1 µM]	-3%	.	-9%[46.1 µM]	.
> CSC(=Nc1ccc(Cl)cc1)N[n+]1ccccc1
→ -22%	-3.9%	-5%	1%	-2%	0%	?	-2%
> O=C(O)C(=Cc1ccnc2ccccc12)C(=O)O
→ -25%	3.4%	-3%	.	2%	-7%	.	.
> CN1CCNC(=O)C1CC(=O)NCCC1=CCCCC1 (stereo not drawn)
→ 0%	.	2%	.	.	-11%	.	1%
> Cc1ccc(NC(=O)CSc2nc3ccccc3c(=O)n2CCCC(=O)NCCCN2CCOCC2)cc1C
→ -19%	.	.	?	.	-2%	?	-1%
> COc1ccc(NC(=O)CC23CC4CC(C2)CC(n2nnc(C)n2)(C4)C3)cc1
→ -15%	.	.	24%[46.1 µM]	.	10%	2%[46.1 µM]	-5%
> COC(=O)c1cc(NC(=O)COC(=O)CCc2nc3ccccc3c(=O)[nH]2)cc(C(=O)OC)c1
→ -13%	.	.	-2%	.	-7%	-5%	4%
> Cc1ccccc1CNC(=O)c1c(C)oc2c1C1=NCCN1C=N2
→ -20%	-0.8%	.	12%[46.1 µM]	-1%	.	.	.
> CCc1cccc(NC(=O)C2CCCN(c3cnccn3)C2)c1 (stereo not drawn)
→ 3%	.	-13%	.	.	1%	.	2%
> O=C1CC(SCCc2nc3ccccc3[nH]2)C(=O)N1c1ccc(F)cc1 (stereo not drawn)
→ 14%	1.6%	5%	3%	6%	-21%	19%	-15%

Profiles from above. Order of screens: StopGo reporter, Cruzain Triton, NS1 function inh, LASV entry inh, Cruzain inh noDet, RE007 growth inh, Marburg entry inh, SARS PLpro yeast
Shown for CCc1cccc(C)c1NC(=O)c1cc(C)nc2c1c(C)nn2-c1cccc(Cl)c1C : -10%, -1.0%, ., 1%[46.1 µM], -14%, ., ., .
Shown for N/C(=N\OC(=O)c1ccccc1Cl)c1ccncc1 : 40%[activator], ., 4%, -24%, ., ?, ?, -1%
Shown for NS(=O)(=O)c1ccc(NC(=S)NCc2ccc(Cl)cc2)cc1 : -21%, -8.9%, 5%, -1%, 13%, -13%, 24%, -7%
Shown for CSC(=Nc1ccc(Cl)cc1)N[n+]1ccccc1 : -22%, -3.9%, -5%, 1%, -2%, 0%, ?, -2%
